Source: PubChem BioAssay
TRPML1 ag = activates the human TRPML1 channel. TRPML1-expressing cells, Ca2+ dye fluorescence, FDSS; host cell line not named in the record; reference of the full effect not given here. 410,000 compounds, 0.12% hits. AID 624414. activation, % (no concentration beside the values). Q9GZU1; in the data active = activation above about 50%; inconclusive = about 30% to 50%; inactive = below about 30%; note: 0% is about no effect; the text of the record puts the active cut at 80%
Target sequence (Q9GZU1 whole entry, looked up): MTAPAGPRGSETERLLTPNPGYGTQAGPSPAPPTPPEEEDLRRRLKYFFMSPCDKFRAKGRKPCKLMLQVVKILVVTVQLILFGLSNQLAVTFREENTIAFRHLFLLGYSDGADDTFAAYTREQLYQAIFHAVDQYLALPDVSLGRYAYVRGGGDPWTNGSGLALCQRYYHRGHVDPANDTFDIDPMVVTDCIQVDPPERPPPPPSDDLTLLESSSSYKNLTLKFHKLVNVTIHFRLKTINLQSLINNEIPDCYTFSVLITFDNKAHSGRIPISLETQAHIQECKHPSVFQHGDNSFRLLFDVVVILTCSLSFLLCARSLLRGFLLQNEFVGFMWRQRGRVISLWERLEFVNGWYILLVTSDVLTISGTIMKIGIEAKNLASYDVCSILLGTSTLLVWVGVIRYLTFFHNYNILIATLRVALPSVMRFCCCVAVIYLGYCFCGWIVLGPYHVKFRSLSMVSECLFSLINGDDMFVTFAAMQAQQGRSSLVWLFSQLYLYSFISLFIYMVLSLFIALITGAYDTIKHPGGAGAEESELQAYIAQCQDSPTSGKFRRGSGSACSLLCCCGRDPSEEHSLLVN
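Agonist activity was taken from a 110 s kinetic Ca2+ dye read on the FDSS after pinning compounds onto TRPML1-DL cells. The cells were seeded at 1,500/well with Tet inducer, incubated about 16 h, then dye-loaded at room temperature.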
TRPV1 potentiator = potentiators of human vanilloid receptor 1 (TRPV1). Q8NER1. TRPV1-expressing cells, Fluo-8 calcium influx, capsaicin EC20 potentiation; host cell line not named in the record; control for the full effect not named in the record. potentiation, % at 8.33 µM. 320,000 compounds, 0.02% hits. AID 540277; active means potentiation above 80%; inconclusive means 30% to 80%; inactive means below 30%; note: 0% is about no effect
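Cells expressing TRPV1 were dye-loaded with Fluo-8 and read kinetically: 10 s baseline, 3 min after compound (agonist portion), then 2 min after EC20 capsaicin (allosteric enhancer portion). Calcium-bound dye fluorescence at 480/520 nm.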
Six1-Eya2 blk = Six1/Eya2 interaction inhibition; activity change, % (concentration not given with the values); AlphaScreen GST-Six1/His-Eya2 binding, biochemical; active compounds read low; control for the full effect not named in the record; AID 651725; 360,000 compounds, 0.56% hits; in the data active = activity change below about -65%; inconclusive = about -30% to -65%; inactive = above about -30%; note: % is set by controls: 0 for no effect and ±100 for the full control effect
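GST-Six1 + His-Eya2 (5X stock: 250/500 nM); Tris pH 8.0, 300 mM NaCl, 0.05% BSA, 0.02% Tween 20; GSH donor/Ni acceptor beads; 1 h 37 °C dark; AlphaScreen readout.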
D2 PAM = potentiates the human D2 dopamine receptor allosterically; DiscoveRx D2 beta-arrestin cells, luminescence, 90 min; 100% = 57 uM dopamine signal; potentiation, % (concentration not given with the values); 360,000 compounds, 0.23% hits; active = potentiation of 50% or more; inconclusive = 30% to 50%; inactive = 30% or less;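 note: tested on top of an EC20 dose of dopamine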
Target sequence (P14416 whole entry, looked up): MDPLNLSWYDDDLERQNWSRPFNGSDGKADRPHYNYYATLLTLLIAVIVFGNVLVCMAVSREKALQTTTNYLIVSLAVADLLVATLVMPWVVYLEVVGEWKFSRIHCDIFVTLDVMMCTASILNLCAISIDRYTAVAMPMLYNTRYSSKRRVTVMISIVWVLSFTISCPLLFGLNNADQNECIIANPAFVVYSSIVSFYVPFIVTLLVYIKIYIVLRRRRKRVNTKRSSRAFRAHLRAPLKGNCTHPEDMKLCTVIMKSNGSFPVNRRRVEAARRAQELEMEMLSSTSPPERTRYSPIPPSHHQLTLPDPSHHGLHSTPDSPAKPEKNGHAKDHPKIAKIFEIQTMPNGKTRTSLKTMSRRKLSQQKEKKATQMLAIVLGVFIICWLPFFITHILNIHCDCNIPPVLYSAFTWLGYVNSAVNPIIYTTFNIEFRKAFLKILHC
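PathHunter beta-arrestin assay in DiscoveRx D2 cells. Compounds were added with an EC20 of dopamine (50 nM final) for 90 min at 37 deg C. Luminescence was read 1 h after detection reagent, with 57 uM dopamine as the EC100 control.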
CtBP-E1A blk = CtBP/E1A binding inhibition; AID 651724; 340,000 compounds, 0.49% hits; activity change, % (concentration not given with the values); AlphaScreen GST-E1A/His-CtBP binding, 1536-well; active compounds read low; control for the full effect not named in the record; in the data active means activity change below about -65%; inconclusive means about -30% to -65%; inactive means above about -30%; note: % is set by controls: 0 for no effect and ±100 for the full control effect
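Protein mix (5X: 125 nM each GST-E1A, His-CtBP) was incubated with pinned compound 2 h at 37 deg C in dark, in 50 mM Tris pH 8.0 buffer with 300 mM NaCl. Glutathione donor and nickel acceptor beads followed; AlphaScreen signal read after 1 h.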
TRPML1 blocker = blocks the human TRPML1 channel | TRPML1-inducible cells, Ca2+ dye fluorescence, FDSS; active compounds read low; inhibition of EC80 agonist-evoked calcium signal | 390,000 compounds, 0.02% hits | Q9GZU1 | activity change, negative = inhibition, % (no concentration beside the values); in the data active means activity change below about -50%; inconclusive means about -30% to -50%; inactive means above about -30%;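 note: stimulus is agonist 54-4 at its EC80 concentration; % is set by controls: 0 for no effect and ±100 for the full control effect; compound concentration not given in the record; the text of the record puts the active cut at -80%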
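Tet-induced TRPML1-DL cells loaded with Ca8 no-wash calcium dye were read kinetically on FDSS. Compound addition was followed by EC80 agonist 54-4 (4 uM final); inhibition was read over 110 s.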
* hit, by the source's call; & = joins results of further samples.

How did O=C(COC(=O)C1CC1)Nc1ccc2[nH]c(=O)[nH]c2c1 do in these assays?
TRPML1 ag: -0.4; TRPV1 potentiator: -2; Six1-Eya2 blk: -2; D2 PAM: -2; CtBP-E1A blk: -7; TRPML1 blocker: -6

What do the screens show for `C#CCn1cnc2c(cnn2-c2ccc(C)c(C)c2)c1=O`?
TRPML1 ag: -1.8; TRPV1 potentiator: 5; Six1-Eya2 blk: -6; D2 PAM: 12; CtBP-E1A blk: 3; TRPML1 blocker: 0

How did O=C(O)C(Cc1cc2ccccc2[nH]1)N1C(=O)C2CC=C(Cl)CC2C1=O (centres undefined) do in these assays?
TRPML1 ag: 0.2; TRPV1 potentiator: 14; Six1-Eya2 blk: 1; D2 PAM: 8; CtBP-E1A blk: 9; TRPML1 blocker: 24

How did CNc1oc(-c2ccc(OCc3ccccc3)cc2)nc1C#N do in these assays?
TRPML1 ag: 2.8; TRPV1 potentiator: -5; Six1-Eya2 blk: 7; D2 PAM: -1; CtBP-E1A blk: -3; TRPML1 blocker: -1

Results for O=C1[C@H](Oc2ccccc2)[C@@H](c2ccncc2)N1c1ccncc1 ?
TRPML1 ag: -0.8; Six1-Eya2 blk: 10; CtBP-E1A blk: 7; TRPML1 blocker: 23

What do the screens show for `CCOC(=O)C1CCCN(C(=O)c2ccc3c(c2)NC(=O)C(N2CCOCC2)S3)C1` (centres undefined)?
TRPML1 ag: -0.2; TRPV1 potentiator: -3; Six1-Eya2 blk: 9; D2 PAM: -14; CtBP-E1A blk: 7; TRPML1 blocker: 13

What do the screens show for `S=C(NCc1ccccc1)NCc1ccccc1Cl`?
TRPML1 ag: 1.9; TRPV1 potentiator: -2; Six1-Eya2 blk: -3; D2 PAM: -13; CtBP-E1A blk: -68*; TRPML1 blocker: 36

Results for Cc1ccc(-c2cc(C(=O)Nc3cccc(S(=O)(=O)N(C)C)c3)c3ccccc3n2)o1 ?
TRPML1 ag: 0.0; TRPV1 potentiator: 4; Six1-Eya2 blk: -1; D2 PAM: 14; CtBP-E1A blk: -18; TRPML1 blocker: -2

Results for CCC1COCCS(=O)(=O)N1Cc1cccc(Cl)c1 (centres undefined) ?
TRPML1 ag: -0.4&-1.2; TRPV1 potentiator: -1; Six1-Eya2 blk: 2; D2 PAM: -5; CtBP-E1A blk: 9; TRPML1 blocker: 36

What do the screens show for `Nc1nc(N2CCOCC2)n[nH]1`?
TRPML1 ag: 0.5; TRPV1 potentiator: 4; Six1-Eya2 blk: 0; D2 PAM: 3; CtBP-E1A blk: -17; TRPML1 blocker: 7

Results for COc1ccc(C(CNC(=O)c2ccc(-n3cnnn3)cc2)N2CCOCC2)cc1 (centres undefined) ?
TRPML1 ag: 0.4; TRPV1 potentiator: -2; Six1-Eya2 blk: 5; D2 PAM: -11; CtBP-E1A blk: -7; TRPML1 blocker: 2

Results for COc1cc2cc(CN(CCCN3CCOCC3)C(=O)Nc3ccccc3F)c(=O)[nH]c2cc1OC ?
TRPML1 ag: 0.2; TRPV1 potentiator: 5; Six1-Eya2 blk: 6; D2 PAM: -8; CtBP-E1A blk: -17; TRPML1 blocker: 12

How did CCC(C)(C)NC(=O)COc1ccc(C(=O)c2ccccc2)cc1 do in these assays?
TRPML1 ag: 0.1; TRPV1 potentiator: -4; Six1-Eya2 blk: 6; D2 PAM: -20; CtBP-E1A blk: -1; TRPML1 blocker: 37

What do the screens show for `COc1ccccc1NC(=O)Cc1noc(CSc2nnc(C(F)(F)F)n2C)n1`?
TRPML1 ag: 0.5; TRPV1 potentiator: 11; Six1-Eya2 blk: 2; D2 PAM: -12; TRPML1 blocker: -6

How did Cc1cc(Cl)ccc1OC(C)C(=O)NN1C(=O)c2ccccc2C1=O (centres undefined) do in these assays?
TRPML1 ag: -0.4; TRPV1 potentiator: 4; Six1-Eya2 blk: -11; D2 PAM: -7; CtBP-E1A blk: -11; TRPML1 blocker: 14

Results for CCOC(=O)COc1ccccc1/C=N/Nc1nnc2c3ccccc3n(C)c2n1 ?
TRPML1 ag: 0.6; Six1-Eya2 blk: 3; D2 PAM: -5; CtBP-E1A blk: -2; TRPML1 blocker: -13

How did CCOC(=O)C1=C(C)N=C2c3ccccc3C(=O)C2C1c1ccccc1 (centres undefined) do in these assays?
TRPML1 ag: 0.3; TRPV1 potentiator: -1; Six1-Eya2 blk: -10; D2 PAM: -24; CtBP-E1A blk: -12; TRPML1 blocker: 29

How did COc1ccc(NC(=O)CSc2nnc(-c3ccoc3C)n2CCc2ccccc2)cc1 do in these assays?
TRPML1 ag: -0.3; TRPV1 potentiator: -22; Six1-Eya2 blk: -10; D2 PAM: 7; CtBP-E1A blk: -2; TRPML1 blocker: -9

How did CCOC(=O)C1=C(C)OC(N)=C(C#N)C1c1ccc(OC)c(C)c1OC (centres undefined) do in these assays?
TRPML1 ag: 0.3; TRPV1 potentiator: -3; Six1-Eya2 blk: 0; D2 PAM: -9; CtBP-E1A blk: 6; TRPML1 blocker: 36

Results for COc1ccc(OC)c(-c2csc(NC(=O)CSc3nnnn3C)n2)c1 ?
TRPML1 ag: -0.6; TRPV1 potentiator: -1; Six1-Eya2 blk: 3; D2 PAM: -1; CtBP-E1A blk: 12; TRPML1 blocker: -8

Grouped by structure, the compounds so far containing a Cl atom.
How did O=C(O)C(Cc1cc2ccccc2[nH]1)N1C(=O)C2CC=C(Cl)CC2C1=O (centres undefined) do in these assays?
TRPML1 ag: 0.2; TRPV1 potentiator: 14; Six1-Eya2 blk: 1; D2 PAM: 8; CtBP-E1A blk: 9; TRPML1 blocker: 24

What do the screens show for `S=C(NCc1ccccc1)NCc1ccccc1Cl`?
TRPML1 ag: 1.9; TRPV1 potentiator: -2; Six1-Eya2 blk: -3; D2 PAM: -13; CtBP-E1A blk: -68*; TRPML1 blocker: 36

Results for CCC1COCCS(=O)(=O)N1Cc1cccc(Cl)c1 (centres undefined) ?
TRPML1 ag: -0.4&-1.2; TRPV1 potentiator: -1; Six1-Eya2 blk: 2; D2 PAM: -5; CtBP-E1A blk: 9; TRPML1 blocker: 36

How did Cc1cc(Cl)ccc1OC(C)C(=O)NN1C(=O)c2ccccc2C1=O (centres undefined) do in these assays?
TRPML1 ag: -0.4; TRPV1 potentiator: 4; Six1-Eya2 blk: -11; D2 PAM: -7; CtBP-E1A blk: -11; TRPML1 blocker: 14

Next section
Results for CCCCNC(=O)[C@H]1C[C@H]1[C@@H](O)[C@H](CO)NC(=O)[C@H](CC(C)C)NC(=O)OC(C)(C)C ?
TRPML1 ag: 0.3; TRPV1 potentiator: -1; Six1-Eya2 blk: 1; D2 PAM: -6; CtBP-E1A blk: 7; TRPML1 blocker: 28

Results for CCc1ccc(C(=O)Nc2cccc(-c3nn[nH]n3)c2)s1 ?
TRPML1 ag: 0.7; TRPV1 potentiator: 1; Six1-Eya2 blk: -10; D2 PAM: 9; CtBP-E1A blk: -4; TRPML1 blocker: 18

Results for COc1ccc(NS(=O)(=O)c2ccc(Cl)c(NC(=O)c3cccnc3Cl)c2)cc1 ?
TRPML1 ag: 0.5; TRPV1 potentiator: 29; Six1-Eya2 blk: -7; D2 PAM: -14; TRPML1 blocker: 9

How did COC(=O)CSCC(=O)Nc1nnc(-c2cccc(C)c2)s1 do in these assays?
TRPML1 ag: 0.5; TRPV1 potentiator: 13; Six1-Eya2 blk: 2; D2 PAM: -1; TRPML1 blocker: -11

Results for O=C(Cn1cnc2ccccc21)Nc1cccc([N+](=O)[O-])c1 ?
TRPML1 ag: 0.4; TRPV1 potentiator: -6; Six1-Eya2 blk: -1; D2 PAM: -12; CtBP-E1A blk: 5; TRPML1 blocker: 11

How did CCCc1ccc(Oc2coc3cc(OCC(=O)Nc4ccccc4C)ccc3c2=O)cc1 do in these assays?
TRPML1 ag: 0.5; TRPV1 potentiator: 9; Six1-Eya2 blk: 1; D2 PAM: -6; CtBP-E1A blk: 7; TRPML1 blocker: 18

What do the screens show for `Cc1ccccc1OCC(=O)Nc1nc(C)c(C(=O)N(C)C)s1`?
TRPML1 ag: -0.1; TRPV1 potentiator: 7; Six1-Eya2 blk: -18; D2 PAM: -8; CtBP-E1A blk: 7; TRPML1 blocker: 12

How did Cc1ccc(N(Cc2ccco2)C(=O)c2ccc(N3CCCCC3)c([N+](=O)[O-])c2)cc1 do in these assays?
TRPML1 ag: 0.1; TRPV1 potentiator: 11; Six1-Eya2 blk: inconclusive; D2 PAM: -2; TRPML1 blocker: 14

Results for COc1ccc2nc(N)sc2c1 ?
TRPML1 ag: -0.5; TRPV1 potentiator: inconclusive; Six1-Eya2 blk: -2; D2 PAM: -9; CtBP-E1A blk: 4; TRPML1 blocker: 3

How did COc1ccc(C2=CC(=O)C[C@H](c3ccc4c(c3)OCO4)C2)cn1 do in these assays?
TRPML1 ag: 1.3; TRPV1 potentiator: 8; Six1-Eya2 blk: -12; D2 PAM: 1; CtBP-E1A blk: 0; TRPML1 blocker: 16

Results for Nc1ccccc1SC(CC(=O)c1ccccc1)c1ccc([N+](=O)[O-])cc1 (centres undefined) ?
TRPML1 ag: 0.4; Six1-Eya2 blk: -19; D2 PAM: -27; CtBP-E1A blk: 3; TRPML1 blocker: -7

How did O=C(NCc1ccncc1)C(=O)N/N=C/c1ccc(OCc2ccccc2)cc1 do in these assays?
TRPML1 ag: -0.4; TRPV1 potentiator: -3; Six1-Eya2 blk: -25; D2 PAM: 9; CtBP-E1A blk: 7; TRPML1 blocker: -13

How did CCCS(=O)(=O)c1cnc(C2COc3ccccc3O2)nc1N (centres undefined) do in these assays?
TRPML1 ag: 0.0; TRPV1 potentiator: 9; Six1-Eya2 blk: 3; D2 PAM: -6; TRPML1 blocker: 0

What do the screens show for `Brc1ccc(-c2nnc3sc(CN4CCN(c5ccccc5)CC4)cn23)cc1`?
TRPML1 ag: 1.4; TRPV1 potentiator: 8; Six1-Eya2 blk: -2; D2 PAM: -2; CtBP-E1A blk: 4; TRPML1 blocker: 33

Results for O=C(O)c1cn(C2CCCCC2)c2ccccc2c1=O ?
TRPML1 ag: -0.5; TRPV1 potentiator: -12; Six1-Eya2 blk: 1; D2 PAM: -1; CtBP-E1A blk: 0; TRPML1 blocker: 27

How did CCOc1ccccc1NC(=S)N(CCC(C)C)C1CCN(C(C)=O)CC1 do in these assays?
TRPML1 ag: -0.1; TRPV1 potentiator: -40; Six1-Eya2 blk: 28; D2 PAM: -1; CtBP-E1A blk: -9; TRPML1 blocker: 18

Results for CC(C)(C)OC(=O)NCCCCCNC(=O)c1nc[nH]c1C(=O)NCCCCCNC(=O)OC(C)(C)C ?
TRPML1 ag: 1.9; Six1-Eya2 blk: 4; D2 PAM: -6; CtBP-E1A blk: -8; TRPML1 blocker: 9

Results for Cc1cc(C)cc(C(=O)NCC(=O)OCC(=O)NC2CC2)c1 ?
TRPML1 ag: 1.2; Six1-Eya2 blk: 7; D2 PAM: -6; CtBP-E1A blk: 5; TRPML1 blocker: 31

As a working copy, some entries already given.
Results for CC(C)(C)OC(=O)NCCCCCNC(=O)c1nc[nH]c1C(=O)NCCCCCNC(=O)OC(C)(C)C ?
TRPML1 ag: 1.9; Six1-Eya2 blk: 4; D2 PAM: -6; CtBP-E1A blk: -8; TRPML1 blocker: 9

Results for Cc1cc(C)cc(C(=O)NCC(=O)OCC(=O)NC2CC2)c1 ?
TRPML1 ag: 1.2; Six1-Eya2 blk: 7; D2 PAM: -6; CtBP-E1A blk: 5; TRPML1 blocker: 31
